High-throughput results deposited in PubChem BioAssay by National Center for Advancing Translational Sciences (NCATS).
VDR inhibitor: inhibitors of human vitamin D receptor | P11473 | VDR-SRC2-3 peptide fluorescence polarization, 2 h | Potency, µM, inactives show max response, negative = inhibition, usual class: inhibitors | 0.93% of 400,000 active | AID 504847; active means well fitted inhibition curve with a large enough effect; inconclusive means small, poorly fitted or top-dose-only effect, or another doubt; inactive means no such curve, though single readings can be large or run the other way; further: series mostly up to about 120 µM
Target sequence (P11473 whole entry, looked up): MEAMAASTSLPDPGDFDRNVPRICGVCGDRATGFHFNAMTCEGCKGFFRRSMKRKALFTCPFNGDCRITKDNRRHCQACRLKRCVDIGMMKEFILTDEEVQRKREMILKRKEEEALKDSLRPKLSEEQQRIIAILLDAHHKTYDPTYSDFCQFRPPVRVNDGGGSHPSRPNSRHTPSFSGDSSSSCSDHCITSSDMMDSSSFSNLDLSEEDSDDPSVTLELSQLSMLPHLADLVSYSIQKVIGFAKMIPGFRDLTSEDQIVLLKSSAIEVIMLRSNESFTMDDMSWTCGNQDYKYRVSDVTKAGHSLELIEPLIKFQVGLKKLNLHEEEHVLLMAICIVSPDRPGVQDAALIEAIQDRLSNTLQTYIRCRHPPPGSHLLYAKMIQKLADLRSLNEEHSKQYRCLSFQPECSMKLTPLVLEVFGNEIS
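Measured by FP: displacement of SRC2-3 coactivator peptide from VDR by library compounds, following a two-hour ambient incubation.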
An asterisk follows results filed as active; ? = inconclusive; & = joins results of further samples. On the % scale 0 is the no-effect control and ±100 the full control effect; potency means the concentration at half of the fitted maximal effect.

SMILES	VDR inhibitor
Clc1ccc(CN2CCN(c3ccccc3)CC2)cn1	-15%
COc1ccc(S(=O)(=O)N2CCOCC2)cc1NC(=O)COc1ccccc1	9%
COc1ccc(N2CCN(C(=O)c3cc4c(=O)oc5ccc(C)cc5c4s3)CC2)cc1	-3%
O=c1c2ccccc2nc(/C=C/c2cc(Br)ccc2O)n1CCCO	13%
CCCCN(C(=O)NC(=O)Nc1c(C)cc(C)cc1C)S(C)(=O)=O	13%
Cc1cc(-c2nnnn2-c2ccc(F)cc2)no1	-7%
CC(=O)Nc1ccc(NC(=O)CN2C(=O)NC3(CCCCCCC3)C2=O)cc1	4%
Cc1nc(N2CCOCC2)c2c3c(sc2n1)CCC3	-10%
Cc1nc2ccc(NC(=O)c3ccc(N4C(=O)CCC4=O)cc3)cc2s1	-9%
CCOc1cc(C2C(C(=O)O)c3cc(OCC)c(OCC)cc3C(=O)N2C)ccc1O (stereo not drawn)	22%
CCN(CC)C(=O)c1cccnc1	4%
O=C(CCC1CCCN(C(=O)Cn2cnnn2)C1)NCc1ccc(F)c(F)c1 (stereo not drawn)	20%
N#Cc1cccc(NC(=O)C2SC(=Nc3ccccc3)C(C(=O)N3CCOCC3)=C2N)c1 (stereo not drawn)	17%
COc1ccc(NC(=O)COC(=O)CCCC2=NS(=O)(=O)c3ccccc3N2)cc1	-19%
CNCCC1Sc2ccccc2Oc2ccccc21 (stereo not drawn)	4%
COc1ccc(NC(=O)CSc2nnc3n2CCCCC3)cc1	-1%
COCCN(Cc1cc2cc(C)ccc2n2nnnc12)C(=S)Nc1cccc(C)c1	-9%
CC(C)Cn1c(N)c(C(=O)COC(=O)[C@H](C)NC(=O)c2ccccc2Cl)c(=O)n(C)c1=O	3%
CSc1ccc(/C=C2\C(=N)N3N=C(CC(=O)N4CCCCC4)SC3=NC2=O)cc1	-16%
CC(C)c1ccc(NC(=O)c2cccnc2)cc1	-28%
CCOC(=O)c1ccc(NC(=S)N(CCCN(CC)CC)Cc2ccco2)cc1	-12%
O=C(NNS(=O)(=O)c1ccccc1F)c1cccc(S(=O)(=O)N2CCOCC2)c1	-12%
S=C(Nc1ccccc1)Nc1nc2ccccc2n1CCOc1ccc(Cl)cc1	-8%
Cn1cnc([N+](=O)[O-])c1Sc1nc(N)nc2c1ncn2C1OC(CO)C(O)C1O (stereo not drawn)	-13%
COc1ccc(OCCSc2nc3ccccc3n2CC(=O)O)cc1	1%
CCC1CCc2c(sc(N)c2C(N)=O)C1 (stereo not drawn)	?
Cn1ncc2c(N3CCN(c4ccccc4F)CC3)ncnc21	-4%&-8%
Nc1c(C(=O)CSc2nccn2-c2cccc(F)c2)c(=O)[nH]c(=O)n1C1CC1	-12%
COc1ccc(Cn2ccnc2SCC(=O)NCc2ccccc2)cc1	-1%
Clc1ccccc1OCCCOc1cccc2cccnc12	?
Cc1cc(Nc2ccccc2)n(CCOC(=O)COc2ccccc2)n1	7%
O=C(O)CN(c1ccc(F)cc1)S(=O)(=O)c1ccc2c(c1)OCCO2	5%
OC[C@@H]1O[C@H](OC2[C@@H](O)[C@@H](O)C(O)O[C@@H]2CO)[C@H](O)[C@@H](O)[C@@H]1OC1O[C@H](CO)[C@@H](O)[C@H](O)[C@@H]1O (stereo partly drawn)	0%
Cc1cc(N2CCOCC2)ccc1/C=C1\SC(=O)N(C(C)C)C1=O	-15%
Cc1ccc(-n2c(SCc3nnc4n3CCC4)nnc2-c2ccccc2)cc1	4%
CC(C)n1c(N2CCCC2)nc2c1c(=O)[nH]c(=O)n2C	-4%
CCCOc1ccc(S(=O)(=O)NNC(=O)c2cc3ccccc3o2)cc1	5%
COC(=O)C1=C(CS(=O)(=O)c2ccc(C)cc2)NC(=O)NC1c1ccc(OC)c(OC)c1 (stereo not drawn)	6%
COc1cc(-c2coc3cc(OCc4ccccc4)c(OC)c(O)c3c2=O)cc(O)c1OC	3%
Nc1nc(SCc2ccc(Br)cc2)c2ncn(C3OC(CO)C(O)C3O)c2n1 (stereo not drawn)	-18%
N#Cc1c(-c2ccco2)cc(C2CC2)nc1N	-8%
COc1ccc(C(=O)NCc2cnn(C)c2C)cc1OC1CCN(C(C)C)CC1	0%
COCCCNC(=O)c1ccc(N2CCOCC2)c(NS(=O)(=O)c2ccc(OC)cc2)c1	11%
Cc1ccc(NC(Cc2cc(C)no2)c2ccccc2)cc1 (stereo not drawn)	-9%
COC(=O)c1ccc(Cn2ccc(=O)[nH]c2=O)cc1	-11%
O=C1C2CCCCN2C(=O)N1CCCCN1CCN(c2ccc([N+](=O)[O-])cc2)CC1 (stereo not drawn)	-5%
Cc1cccc(C(=O)NC2CCCCCCC2)c1	4%
COc1ccccc1-c1ncnn1-c1sc2c(c1C#N)CCCCC2	-1%
O=S(=O)(c1ccc(F)cc1)N1CCN(c2ccccn2)CC1	-3%
S=c1[nH]nc(-c2ccc(Cl)cc2Cl)n1-c1ccc2c(c1)OCCO2	-6%
CCOc1cc(C)c(S(=O)(=O)NCc2ccccn2)cc1C	-23%
COCC(=O)N1CCC(Oc2ccc(C(=O)NCCc3ccncc3)cc2)CC1	8%
CCn1c(=O)c2c(nc(SCC(=O)NC3CCCC3)n2C)n(C)c1=O	3%
COc1cccc(NC(=O)CC2COc3ccccc3O2)c1 (stereo not drawn)	-13%
C=CCN1CCc2nc(N)sc2CC1	?
COc1ccc(Cl)cc1NC(=O)CN(C)C(=O)c1ccc(N2CCCCCC2)c([N+](=O)[O-])c1	3%
Cc1ccc(C(=O)COC(=O)c2cc(-c3cccs3)nc3ccccc23)cc1	-9%
Cn1c(C(=O)NCCc2ccsc2)cc2c(=O)n(C)c3ccccc3c21	-18%
Cn1nc(C(=O)Oc2cc(=O)n(C)c3ccccc23)c2ccccc2c1=O	4%
CCCCc1nc(NCCN)c(C#N)c2c1CSC(C)(C)C2	-19%

(further entries)
SMILES	VDR inhibitor
CC(=O)c1cccc(NC(=O)c2sc(-n3nc(C)c(Cc4ccc5c(c4)OCO5)c3C)nc2C)c1	25%
O=C(COC(=O)c1ccc(Br)o1)Nc1ccc(Br)cc1	24%
C/C(=N\NC(=S)Nc1ccccc1)C1Cc2ccccc2C(=O)O1 (stereo not drawn)	-4%
CCCCNC(=O)C(=O)NCC1CCCN1S(=O)(=O)c1cccs1 (stereo not drawn)	-25%
COCCN(CCOC)S(=O)(=O)c1ccc(C(=O)Nc2ccncc2)cc1	-11%
Cc1ccc(-c2csc3ncn(C(C)C(=O)O)c(=O)c23)cc1 (stereo not drawn)	1%
NC1=NC[C@@H](CC2CCCCC2)N1CCc1cc(C(F)(F)F)cc(C(F)(F)F)c1	-20%
Cc1cnc(C(=O)O)cn1	2%
CC(C)CCn1c(COc2ccccc2)n[nH]c1=S	-2%
COc1ccc(S(=O)(=O)N2CCOCC2)cc1NC(=O)COC(=O)c1[nH]c(C)c(C(C)=O)c1C	-1%
COc1ccc(C(=O)N/N=C(\C)c2cccc(NC(=O)c3ccc(F)cc3)c2)c(OC)c1	-9%
CC1=CC(C)(C)N2C(=O)C3(C(C#N)=C(N)OC4=C3C(=O)CCC4)c3c(C)c(C)cc1c32 (stereo not drawn)	-12%
CCOc1ccccc1NC(=O)C1CCN(S(=O)(=O)c2c(C)noc2/C=C/c2ccco2)CC1	-14%
CCC(Sc1nc2n[nH]c(C)c2c(=N)n1-c1cccc(Cl)c1C)C(=O)N(CC)CC (stereo not drawn)	3%
CCCCNC(=O)CC1N=C2c3ccccc3N=C(SCC(=O)Nc3cccc(OC)c3)N2C1=O (stereo not drawn)	1%
CCC(CC)C(=O)OCC(=O)NC12CC3CC(CC(C3)C1)C2	?
O=C1c2ccccc2C(=O)N1CSc1nnc2c3ccccc3n(CCc3ccccc3)c2n1	-4%
CC1=NN(c2ccccc2)C(=O)/C1=C\c1cc(C)n(-c2ccccc2)c1C	7%
CS(=O)(=O)N(CC(O)Cn1c2ccccc2c2ccccc21)c1ccccc1 (stereo not drawn)	0%
Cc1cccc2c1N(CCOc1ccccc1Cl)C(=O)C2=O	?
COc1ccc(OCC(O)CON2C(=O)c3ccccc3C2=O)cc1 (stereo not drawn)	-1%
COc1cc(-c2nnn(Cc3ccccc3C)n2)cc(OC)c1OC	-10%
CC1CCCCN1C(=O)CSc1nc(-c2ccccc2)cn1N (stereo not drawn)	?
CCOC(=O)C1=CNS(=O)(=O)NC1c1ccc(C)cc1 (stereo not drawn)	-6%
O=S(=O)(c1ccc(F)cc1)N1CCC(n2c(C(F)(F)F)nc3cccnc32)CC1	3%
CCOC(=O)c1ccc(NC(=O)c2cc3sccc3n2Cc2ccc(Cl)cc2)cc1	0%
O=CN1CCN(C(C(=O)NC2CCCC2)c2ccc(Cl)cc2)CC1 (stereo not drawn)	12%
COc1ccccc1CNC(=S)NC1CCCCC1	-17%
COc1ccc(Cl)cc1NC(=O)C[n+]1ccccc1	-10%
COc1ccc2cc(/C(C)=N/NC(=O)c3cc(-c4cccnc4)nc4ccccc34)ccc2c1	-6%
Cc1ccc(S(=O)(=O)N2CCOCC2)cc1N/N=C(\C#N)c1nc2ccccc2[nH]1	1%
CCOC(=O)C1(Cc2ccccc2C(F)(F)F)CCN(C(=O)c2cc(C)n(C)n2)CC1	-15%
Cc1occc1C(=O)N/N=C/C=C/c1ccccc1[N+](=O)[O-]	-3%
Cc1ccc(NC(=O)CCCn2nc(C)c3c(C)n(-c4ccccc4)nc3c2=O)cc1C	7%
Nc1ccc(Oc2ncccn2)cc1	?
NC(=O)N=Nc1c(O)[nH]c2ccc([N+](=O)[O-])cc12	4%
CCC(C)C(=O)Nc1nnc(CCc2ccccc2)s1 (stereo not drawn)	?
NS(=O)(=O)c1cnccc1Nc1ccc(Cl)cc1	-12%
O=C(Nc1cccc2ccccc12)c1cnsn1	-7%
S=C(CN1CCCC1=S)NCCc1ccccc1	0%
CC1CN(Cc2c(O)ccc3c(=O)c(-c4ccccc4Cl)coc23)CC(C)O1 (stereo not drawn)	6%
CC1CCCN(c2ncnc3c2nnn3C)C1 (stereo not drawn)	19%
C=CCn1c(-c2csc(-c3ccc(Cl)cc3)n2)n[nH]c1=S	-5%
O=C(Nc1c2c(nn1-c1ccccc1)CS(=O)(=O)C2)c1cc2ccccc2o1	10%
Cc1cc(C)cc(NC(=O)c2ccc(CSc3nnc(C)s3)cc2)c1	-4%
O=C(NCc1ccco1)C1CCCN(S(=O)(=O)Cc2ccccc2)C1 (stereo not drawn)	5%
CN(C)C(=O)CCc1ccc2c3c([nH]c2c1)[C@]1(C)[C@@H](C(=O)N2CCOCC2)C[C@H](CC(=O)NCC24CC5CC(CC(C5)C2)C4)C(=O)N1CC3	11%
CCOC(=O)c1c(-c2ccc(OC)cc2)oc2ccc(OCc3ccc(F)cc3F)cc12	-15%
COc1ccc(C(=O)Nc2ccccc2C(=O)NC(Cc2ccc(O)cc2)C(=O)NNC(=O)c2ccncc2)cc1 (stereo not drawn)	6%
Cn1c(CNC(=O)c2ccccc2F)nnc1SCC(=O)N1CCN(c2ccccc2)CC1	24%
CC(=O)NC(c1ccccc1)c1cc(Cl)c2cccnc2c1O (stereo not drawn)	17%
O=c1[nH]c(=S)[nH]cc1S(=O)(=O)c1cccc(Cl)c1	-5%
CC(C)(CS(=O)(=O)[O-])NC(=O)CC[N+](C)(C)CCO	-4%
O=C(Cc1cccc(C(F)(F)F)c1)NCc1ccc(Cl)cc1Cl	-22%
Cc1ccc2c(c1)c(N1CCCC1=O)c(C(=O)Nc1ccc(F)cc1F)n2C	10%
COc1ccc(C(C)=O)cc1CSc1nnc(Nc2ccccc2)s1	8%

Structures listed so far that have an aryl thioether with sulfur outside any ring (15):
SMILES	VDR inhibitor
COc1ccc(NC(=O)CSc2nnc3n2CCCCC3)cc1	-1%
CSc1ccc(/C=C2\C(=N)N3N=C(CC(=O)N4CCCCC4)SC3=NC2=O)cc1	-16%
Cn1cnc([N+](=O)[O-])c1Sc1nc(N)nc2c1ncn2C1OC(CO)C(O)C1O (stereo not drawn)	-13%
COc1ccc(OCCSc2nc3ccccc3n2CC(=O)O)cc1	1%
Nc1c(C(=O)CSc2nccn2-c2cccc(F)c2)c(=O)[nH]c(=O)n1C1CC1	-12%
COc1ccc(Cn2ccnc2SCC(=O)NCc2ccccc2)cc1	-1%
Cc1ccc(-n2c(SCc3nnc4n3CCC4)nnc2-c2ccccc2)cc1	4%
Nc1nc(SCc2ccc(Br)cc2)c2ncn(C3OC(CO)C(O)C3O)c2n1 (stereo not drawn)	-18%
CCn1c(=O)c2c(nc(SCC(=O)NC3CCCC3)n2C)n(C)c1=O	3%
CCC(Sc1nc2n[nH]c(C)c2c(=N)n1-c1cccc(Cl)c1C)C(=O)N(CC)CC (stereo not drawn)	3%
O=C1c2ccccc2C(=O)N1CSc1nnc2c3ccccc3n(CCc3ccccc3)c2n1	-4%
CC1CCCCN1C(=O)CSc1nc(-c2ccccc2)cn1N (stereo not drawn)	?
Cc1cc(C)cc(NC(=O)c2ccc(CSc3nnc(C)s3)cc2)c1	-4%
Cn1c(CNC(=O)c2ccccc2F)nnc1SCC(=O)N1CCN(c2ccccc2)CC1	24%
COc1ccc(C(C)=O)cc1CSc1nnc(Nc2ccccc2)s1	8%

Not all compounds are listed; rates above refer to the full screens.
